SARS PLpro yeast = inhibitors of SARS-CoV papain-like protease in yeast. S. cerevisiae expressing SARS-CoV PLpro, growth rescue; control for the full effect not named in the record. Potency, µM (doses to about 32.9 µM), for the others: at the top dose activity, positive = growth rescue. hit rate 0.19% among 330,000. AID 485353; note: 0% is about no effect; nearly all actives have a fitted effect of over 55% in size; growth read by luminescence after 48 h
RE007 growth inh = less growth of the S. pombe RE007 Vpr strain. S. pombe RE007 Vpr strain, BacTiter-Glo ATP luminescence, 24 h; control for the full effect not named in the record. AID 651644. hit rate 0.21% among 360,000. Potency, µM (top dose mostly 92.2 µM), inactives show at the top dose activity change, negative = less growth; active = well fitted falling curve with a large enough effect; inconclusive = small, poorly fitted or top-dose-only effect; inactive = no such curve, though single readings can be large or run the other way;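 note: % is set by controls: 0 for no effect and ±100 for the full control effect; nearly all actives have a fitted effect of over 50% in size; the assay follows cell death caused by Vpr and the record does not say whether a fall means rescue or toxicity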
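Fission yeast strain RE007, carrying one chromosomally integrated HIV-1 vpr copy, was seeded at OD 0.01 in PMG+AL medium with 23 nL pinned compound. After 24 h at 30 °C and 99% humidity, viability was read by BacTiter-Glo luminescence.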
Marburg entry inh = Marburg virus entry inhibition. Marburg virus pseudotyped entry inhibition, cell reporter; control for the full effect not named in the record; about a third of the inactives were read at about 46 µM. Potency, µM (titrated, usually from 37.8 µM), without a hit: top-dose activity change, negative = inhibition, usual class: inhibitors. hit rate 1.8% among 300,000; active = well fitted inhibition curve with a large enough effect; inconclusive = small, poorly fitted or top-dose-only effect, or effect the other way; inactive = flat fitted curve, though single readings scatter; tested in HEK293 cells; about a fifth of its hits are not listed in these tables; note: % is set by controls: 0 for no effect and ±100 for the full control effect; luciferase read-out
Cruzain Triton = blocks cruzain activity in presence of Triton detergent. Potency, µM, for the others: max response, negative = inhibition, usual class: inhibitors. P25779. purified cruzain, Z-FR-AMC fluorescence, 0.01% Triton. AID 1478. hit rate 0.43% among 200,000; active = well fitted curve in the direction sought with a large enough effect; inconclusive = small, poorly fitted or top-dose-only effect, or another doubt; inactive = no such curve, though single readings can be large; an effect the other way counts as inactive or inconclusive;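 note: plate controls were neutral wells for no effect and buffer without enzyme for full effect; nearly all actives have a fitted effect of over 40% in size; top concentration of the series not given in the record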
Target sequence (P25779 123-467 limits assumed): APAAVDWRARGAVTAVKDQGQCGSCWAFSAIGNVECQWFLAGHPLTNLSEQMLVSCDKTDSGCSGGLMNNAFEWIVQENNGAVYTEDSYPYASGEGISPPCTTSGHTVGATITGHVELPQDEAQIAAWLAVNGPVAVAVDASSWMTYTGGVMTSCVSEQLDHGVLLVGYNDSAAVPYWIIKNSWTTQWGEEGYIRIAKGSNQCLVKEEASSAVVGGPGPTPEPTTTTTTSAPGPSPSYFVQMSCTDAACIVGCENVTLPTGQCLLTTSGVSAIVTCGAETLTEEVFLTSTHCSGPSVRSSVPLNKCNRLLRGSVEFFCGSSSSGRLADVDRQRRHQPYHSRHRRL
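Cruzain (1.5 nM) preincubated 15 min at RT with compound in 100 mM sodium acetate pH 5.5, 5 mM DTT, 0.01% Triton X-100. Reaction started with 2 uM Z-FR-AMC; AMC fluorescence (ex 360/em 450 nm) change over 60 s gave rate.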
Cruzain inh noDet = inhibitors of Trypanosoma cruzi cruzain without detergent; P25779; purified cruzain, Z-FR-AMC fluorescence, no detergent; Potency, µM, inactives show max response, negative = inhibition, actives largely listed as inhibitors; hit rate 2.3% among 200,000; active = well fitted curve in the direction sought with a large enough effect; inconclusive = small, poorly fitted or top-dose-only effect, or another doubt; inactive = no such curve, though single readings can be large; an effect the other way counts as inactive or inconclusive;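 note: plate controls were enzyme without inhibitor for no effect and buffer without enzyme for full effect; nearly all actives have a fitted effect of over 40% in size; top concentration of the series not given in the record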
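Detergent-free condition (0.00005% Triton X-100) in acetate buffer pH 5.5 with DTT. 1.5 nM enzyme and compound were pre-mixed 15 min, then 2 uM Z-FR-AMC substrate added; reaction progress from fluorescence change between first and third reads (60 s).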
2A StopGo = FMDV 2A StopGo reporter, luciferase signal; AID 1159524; human cells with a luciferase reporter of 2A StopGo recoding; control for the full effect not named in the record; Potency, µM (doses to about 57.9 µM), without a hit: at the highest dose signal change, negative = less light; hit rate 1.2% among 410,000; active = well fitted falling curve with a large enough effect; inconclusive = small, poorly fitted or top-dose-only effect; inactive = no such curve, though single readings can be large or run the other way; tested in HEK293T cells; note: % is set by controls: 0 for no effect and ±100 for the full control effect; nearly all actives have a fitted effect of over 45% in size; luciferase light after 4 h
LASV entry inh = Lassa virus entry inhibition; Lassa virus pseudotype entry inhibition, cell reporter; control for the full effect not named in the record; Potency, µM (highest dose often 37.9 µM), for inactives: top-dose activity change, negative = inhibition, actives largely listed as inhibitors; hit rate 1.2% among 300,000; active means well fitted inhibition curve with a large enough effect; inconclusive means small, poorly fitted or top-dose-only effect, or effect the other way; inactive means flat fitted curve, though single readings scatter; tested in HEK293 cells; note: % is set by controls: 0 for no effect and ±100 for the full control effect; nearly all actives have a fitted effect of over 50% in size; luciferase read-out
NS1 function inh = inhibitors of influenza NS1 protein function; S. cerevisiae slowed by influenza A NS1, growth recovery by OD600; Potency, µM (doses to about 46.1 µM), inactives show top-dose activity, positive = more growth; hit rate 0.4% among 270,000; note: actives are rising curves; nearly all actives have a fitted effect of over 50% in size
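Read-out: OD600 growth recovery of NS1-expressing budding yeast. Cells grown overnight at 30C in -URA glucose medium, washed, resuspended and diluted 1:100 in 2% galactose assay medium, pH 6.0. Same strain lacking NS1 served as positive control.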
* marks the source's active call; other numbers are inactive results; ? = inconclusive; · = no result given; & = joins results of further samples; [ ] = dose if it differs, or a comment. Unless noted, calls come from the whole dose curve; as a rule, active means well fitted rising curve with a large enough effect; inconclusive means small, poorly fitted or top-dose-only effect; inactive means no such curve, though single readings can be large or run the other way. Potency is the fitted concentration of half-maximal effect.

SMILES	SARS PLpro yeast	RE007 growth inh	Marburg entry inh	Cruzain Triton	Cruzain inh noDet	2A StopGo	LASV entry inh	NS1 function inh
COc1ccc(CNC(=O)C(c2ccco2)N(C(=O)c2snc(C(N)=O)c2N)c2ccccc2OC)cc1 (stereo not given)	0%	-8%	?	·	·	-9%	·	9%
c1ccc(CSc2nnnn2-c2ccc3c(c2)OCCO3)nc1	-4%	5%	20%	-0.9%	-6%	15%	1%	-11%
O=C(NCCc1nc2ccccc2[nH]1)c1ccc(Br)o1	1%	-14%	-10%[46.1 µM]	·	·	-10%	-2%[46.1 µM]	-3%
Cc1ccnc2nc(C(=O)Nc3nnc(-c4ccc(Cl)cc4)o3)nn12	-3%	-22%	-3%	·	·	4%	-13%	·
CC(O)c1cc2c(cc1NC(=O)c1cnn3c1NC(c1ccco1)CC3C(F)(F)F)OCO2 (stereo not given)	4%	-4%	?	-0.3%	4%	-19%	0%	-6%
O=C(Cn1ccc2ccccc2c1=O)N1CCN(c2cccc(Cl)c2)CC1	-3%	6%	?	4.5%	?	-15%	-15%	5%
CCC(=O)N1CCc2cc(S(=O)(=O)NC(Cc3ccccc3)C(=O)O)ccc21 (stereo not given)	1%	12%	0%&0%[46.1 µM]	1.1%	-9%	-16%&0%	5%&-4%[46.1 µM]	7%
CCCN(CCC)CCCNC(=O)c1cn(-c2ccc(OC)cc2)c(=O)c2ccccc12	3%	7%	·	·	·	-12%	·	0%
COc1ccc(-c2cc3nc(-c4ccc(Br)cc4)cc(C(F)(F)F)n3n2)cc1	·	·	-8%[46.1 µM]	-0.4%	-5%	-5%	15%[46.1 µM]	·
COc1ccccc1N1CCN(S(=O)(=O)c2ccc3c4c(cccc24)C(=O)N3)CC1	-1%	-12%	-9%	-2.4%	?	·	4%	-19%
O=C(Nc1ccc2c(c1)OCO2)c1ccc(Cl)cc1Cl	1%	-22%	6.3µM*	·	·	-8%	?	5%
COc1cccc(NS(=O)(=O)NC(=O)c2c[nH]c3ccccc23)c1	2%	-5%	·	·	·	4%	·	?
CC1CCCN(CCCN2C(=O)C3C(C(=O)Nc4ccc(Cl)cc4)C4C=CC3(O4)C2C(=O)NC2CCCCC2)C1 (stereo not given)	2%	5%	?	·	·	-11%	0%[46.1 µM]	-9%
Cn1ncc2c(Nc3ccc(Cl)c(Cl)c3)ncnc21	5%	-1%	·	·	·	28%	·	-29%
O=C(NC1CCCCC1)c1ccccc1NC(=S)NC(=O)C1CC1	-1%	11%	?	-1.4%	-6%	-6%	-1%	5%
CN1CCC(OC(=O)c2ccco2)CC1	1%	-5%	-7%	·	·	8%	8%	1%
CN(CC(=O)NCCN1CCOCC1)S(=O)(=O)c1ccc(F)cc1	4%	-7%	18%[46.1 µM]	·	·	2%	-6%	7%
O=C(Nc1ccc(-c2nc3ccccc3o2)cc1)c1ccc(N2CCOCC2)c([N+](=O)[O-])c1	-3%	-6%	?	0.2%	?	?	-17%	-1%
CCc1ccccc1NC(=O)c1oc(=O)c2ccccc2c1-c1ccccc1	·	·	·	-4.0%	-4%	-25%	-16%[46.1 µM]	·
O=C(Nc1ccc(F)c(F)c1)c1ccc(=O)n(Cc2ccc(F)cc2)c1	·	·	·	-5.1%	-15%	-14%	3%[46.1 µM]	·
Cc1ccccc1N(C(=O)c1snc(C(N)=O)c1N)C(C(=O)NCc1ccccc1)c1ccc(O)cc1 (stereo not given)	-2%	-2%	?	·	·	-20%	?	2%
CCO/N=C(/C)c1c(O)cc(-c2ccccc2)n(-c2ccccc2)c1=O	-2%	-9%	-12%	-4.6%	-10%	16%	?	-8%
Cc1cc(/C=C2\SC(=S)N(C)C2=O)c(C)n1-c1ccc(O)cc1	-5%	17%	·	·	·	0.89µM*	·	-38%
Clc1ccc(-c2n[nH]c3c2CCC3)cc1Cl	-35%	?	-17%	-16%	-4%	16%	?	-149%
CC1CCc2onc(C(=O)N3CCN(c4cccc(C(F)(F)F)c4)CC3)c2C1 (stereo not given)	·	·	·	-3.5%	11%	?	-24%[46.1 µM]	·
Cn1c(C(=O)N2CCN(C3CCCCC3)CC2)cc2c(=O)n(C)c3ccccc3c21	1%	·	·	-2.8%	-26%	·	·	0%
CCN(CC(=O)Nc1ccccc1C(F)(F)F)C(=O)/C=C/c1ccc(Cl)c([N+](=O)[O-])c1	4%	-14%	5%	·	·	-22%	-1%	·
CC(C)CCSc1nnc(Cn2c(=O)sc3ccccc32)n1C	20%	-2%	·	-3.2%	0%	1%	·	-4%
COc1ccc(-c2cc(C(C)=O)c(C)n2CCC(=O)Nc2cc(Cl)ccc2C)cc1	·	·	·	-0.5%	8%	-9%	-24%[46.1 µM]	·
O=C(CCC(=O)c1ccc(Oc2ccccc2)cc1)Nc1ccc(C(=O)O)cc1	-4%	-9%	·	·	·	1%	·	-11%
CC(=O)Nc1sc(C)c(C)c1CN1CCN(Cc2ccccc2)CC1	-1%	-9%	-19%[46.1 µM]	·	·	16%	-1%	1%
CC(C)c1ccc(NC(=O)Cn2nnc(C(=O)NCc3ccc(Cl)cc3)c2N)cc1	·	·	·	-0.5%	7.9µM*	0%	23%[46.1 µM]	·
COc1ccc(OC)c(CNC(=O)C2CCC(=O)N(CCCN3CCCC3=O)C2)c1 (stereo not given)	1%	39%	-14%	·	·	-1%	1%	3%
O=S(=O)(Nc1cccc(-c2ccc(N3CCCC3)nn2)c1)c1ccccc1C(F)(F)F	·	·	·	-4.1%	3%	38%[activator]	17%[46.1 µM]	·
CCN1CCC(CNCc2cn(-c3ccc(OC)cc3)nc2-c2ccccc2Cl)C1 (stereo not given)	-1%	-14%	4µM*	·	·	35%[activator]	?	2%
COc1ccc(C(=O)Nc2ccccc2C(=O)NCCN2CCOCC2)cc1	?	9%	9%	-6.6%	3%	·	9%	-1%
O=C(c1ccc2c(Cl)c3c(nc2c1)CCCC3)N1CCN(c2ccccc2)CC1	·	·	-23%[46.1 µM]	2.3%	-9%	-4%	-1%[46.1 µM]	·
O=[N+]([O-])c1ccc(CP(=O)(c2ccccc2)c2ccccc2)cc1	13%	4%	·	·	·	-6%	·	11%
COc1ccc(-c2cc(C(F)(F)F)c(C#N)c(SCC(=O)O)n2)cc1	1%	-3%	-2%[46.1 µM]	·	·	-14%	-9%	2%
Cc1ccc(C)c(OCCCC(=O)NC2CCCCC2)c1	-4%	-20%	-19%	·	·	-11%	-19%	-8%
Cc1cc(C)n(CCc2nc(-c3cccs3)cs2)n1	23%	-17%	5%	-3.5%	-1%	0%	-10%	-3%
CCS(=O)(=O)c1ccc(O)c(NC(=O)COc2ccccc2)c1	-3%	-10%	?	3.5%	-5%	-5%	12%	8%
COc1ccc(NC(=O)N(Cc2cc3cc(OC)c(OC)cc3[nH]c2=O)CC2CCCO2)cc1 (stereo not given)	-1%	0%	·	·	·	28%	·	-6%
COC(=O)Cn1c(CN2CCc3ccccc3C2)nc2c1c(=O)n(C)c(=O)n2C	4%	0%	·	-5.2%	7%	?	·	7%
COC(=O)c1nnn(-c2cccc(Cl)c2)c1C(=O)OC	0%	1%	2%[46.1 µM]	·	·	-4%	10%[46.1 µM]	-8%
CCC1(C(=O)O)NC(c2cccc(OC)c2O)C2C(=O)N(c3ccccc3)C(=O)C21 (stereo not given)	-5%	3%	7%	1.0%	13%	-2%	2%	?
O=C(O)CC1(CC(=O)NCc2ccc(-c3cccs3)cc2)CCCCC1	0%	17%	15%[46.1 µM]	·	·	-5%	2%[46.1 µM]	5%
OC(COc1ccc(C2C=CCC2)cc1)CN1CCCCC1 (stereo not given)	-2%	-11%	?	?	-6%	9%	2%	-4%
COc1ccc(N=C2CCS(=O)(=O)c3sccc32)cc1	0%	-3%	?	·	·	30%	?	2%
N/C(=N\c1nc(CSc2ccc(Cl)cc2)cc(=O)[nH]1)Nc1cccc2ccccc12	8%	11%	?	-3.8%	10µM*	-9%	2%	5%
COc1ccc(Cn2c(=S)[nH]c3ccccc32)cc1	1%	10%	-24%[46.1 µM]	·	·	18%	-12%[46.1 µM]	-6%
COc1cc(C(=O)OCc2cc(=O)n3ccsc3n2)ccc1OC(C)C	-26%	2%	?	·	·	?	?	·
Cc1ccc2oc(C(=O)Nc3ccc(S(=O)(=O)Nc4ncccn4)cc3)cc(=O)c2c1	·	·	1%[46.1 µM]	-0.9%	-6%	-19%	22%[46.1 µM]	·
COC(=O)C1CCN(C(=O)c2cc3ccccc3oc2=O)CC1	3%	2%	?	-2.2%	-8%	78%[activator]	?	-4%
COc1ccc(Cl)cc1C(=O)Nc1ccc2nc3n(c(=O)c2c1)CCCC3	-1%	1%	?	·	·	11%	-4%	-1%
O=C(Nc1cccnc1)c1cccc(-c2cc3ccccc3oc2=O)c1	20%	13%	1%[46.1 µM]	·	·	26%	-5%[46.1 µM]	4%
Cc1ccc(C(=O)NC(NC(=S)Nc2ccc(S(N)(=O)=O)cc2)C(Cl)(Cl)Cl)cc1 (stereo not given)	9%	3%	10%	-17%	-4%	-6%	-15%	14%
CC1(C)OC(=O)C(=CNc2ccc(F)cc2)C(=O)O1	-2%	-19%	26%	-5.4%	6%	39%[activator]	2%	0%
Cc1cccc(C(=O)NCCCn2ccnc2)c1C	0%	-8%	7%[46.1 µM]	·	·	-20%	?	3%
COC(=O)CSc1nc2ncccc2[nH]1	-3%	8%	33%	-2.1%	3%	-2%	2%	6%
CC(NC(=O)C1C(=O)N(CCO)C2(C)CC1c1ccccc1O2)c1ccccc1 (stereo not given)	1%	-8%	?	2.7%	-12%	5%	1%	-2%
CC1CCC(N(C)C2CCN(C)CC2)CC1 (stereo not given)	-2%	2%	·	·	·	-8%	·	-3%
CSc1ccccc1NC(=O)CCS(=O)(=O)c1nc(-c2ccc3c(c2)OCO3)cc(C(F)(F)F)n1	·	·	?	-11%	?	?	2%[46.1 µM]	·

Screens (PubChem BioAssay)
